Screens as filed in PubChem BioAssay.
Vif TR-FRET = inhibitors of Vif binding to APOBEC3G peptide, primary screen, biochemical, TR-FRET, GST-Vif 1-94, biotin-A3G peptide, dose response retest (AID 1117319). Virion infectivity factor (Human immunodeficiency virus type 1 group M subtype B (isolate …. TR-FRET GST-Vif / biotin-A3G peptide binding; higher % means a stronger effect; test concentration not given here; strong numbers were not always called active. one-dose inhibition, %; IC50 in µM for titrated hits. hit rate 0.57% among 260,000;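 active = above the screen mean plus three standard deviations and confirmed in dose response; inconclusive = results disagree or hit not tested in dose response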;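 note: Vif residues 1-94 fused to GST binding biotinylated APOBEC3G peptide 110-148; 0% = full assay without inhibitor and 100% = GST in place of GST-Vif; retest series ran down from 100 µM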
RanGTP-Imp inh = inhibitors of RanGTP-importin-beta interaction, primary screen, biochemical, FRET, CFP-Ran, YFP-importin-beta, homogeneous. cell-free CFP-Ran/YFP-importin-beta FRET ratio. inhibition, % (test concentration not listed). hit rate 1.1% among 300,000;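 active = most replicates above 15%; inconclusive = exactly half above 15%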;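 note: 0% = DMSO wells and 100% = Ran loaded with GDP instead of GTP; wells of about 40 µL received 100 nL stock; the first replicate is given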
MLL AF4-AF9 inh = inhibitors of AF4 peptide binding to AF9, primary screen, biochemical, AlphaScreen, biotin-AF4 peptide, FLAG-AF9, single point. Protein AF-9 (Homo sapiens), P42568. inhibition, % at 10 µM. hit rate 0.47% among 350,000;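 active = every replicate reaching a set inhibition limit, whatever the replicate mean, cut at about 25% in these data; inconclusive = mean inhibition reaches that limit but some replicates miss it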;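 note: 0% = plate neutral control median and 100% = total signal loss; the record names both 10 and 1 µM as test concentration; the first replicate is given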
Target sequence (P42568 whole entry, looked up): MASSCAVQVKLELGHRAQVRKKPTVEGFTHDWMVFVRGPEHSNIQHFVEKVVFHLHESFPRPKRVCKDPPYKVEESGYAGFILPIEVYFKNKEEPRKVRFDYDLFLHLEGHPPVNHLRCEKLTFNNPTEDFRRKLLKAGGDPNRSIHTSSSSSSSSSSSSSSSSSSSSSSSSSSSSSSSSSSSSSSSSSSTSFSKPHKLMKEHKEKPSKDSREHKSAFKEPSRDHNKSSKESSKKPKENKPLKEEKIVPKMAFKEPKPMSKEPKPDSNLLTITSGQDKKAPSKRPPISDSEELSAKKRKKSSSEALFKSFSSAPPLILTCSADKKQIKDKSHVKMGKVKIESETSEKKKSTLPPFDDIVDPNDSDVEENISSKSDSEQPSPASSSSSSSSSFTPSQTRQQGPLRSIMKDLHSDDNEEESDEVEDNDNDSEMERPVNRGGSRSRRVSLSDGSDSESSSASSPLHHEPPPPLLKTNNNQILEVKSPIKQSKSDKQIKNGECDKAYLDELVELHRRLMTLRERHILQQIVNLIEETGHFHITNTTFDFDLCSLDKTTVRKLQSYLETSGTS
A1 inh = caspase 3/7 activation in MEF A1-2A-BIM cells, primary screen, A1 inhibitor project, cell-based, luminescence, HTS. Caspase-Glo 3/7 luminescence, 3 h; percent of clofoctol response, vehicle zero. hit rate 0.066% among 330,000. caspase activation, % (concentration not given with the values). AID 2462, 2010;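 active = over half of replicate activation scores above 10%, or exactly half above 10 with the replicate mean above 10; inconclusive = replicate mean below 10 yet half the replicates above 10; inactive = over half of replicates below 10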;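 note: wells of about 30 µL received 50 nL stock; many hits fall short of the cut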
T cruzi repl = inhibitors of intracellular T. cruzi growth, primary screen, luminescence, NIH3T3 host cells; T. cruzi beta-gal in NIH3T3, 90 h; inhibition, % (no concentration beside the values); hit rate 1.4% among 300,000; AID 1885, 2009;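 active = mean inhibition across valid replicates above about 55%, limit read from the data; inconclusive = mean below that limit but half or more replicates reach it; inactive = mean below it, under half of replicates reach it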;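 note: signal also drops with host cell toxicity which is not excluded here; 0% = plate median of DMSO wells and 100% = zero luminescence signal; higher percent means less beta-gal luminescence so fewer parasites; stock transfer was 50 nL into about 50 µL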
Beta apoptosis = inhibitors of cytokine-induced beta cell apoptosis, primary screen, luminescence. INS-1E cytokine-induced death, ATP luminescence, 48 h; percent of positive-control rescue, neutral wells zero. protection from apoptosis, % (concentration not given with the values). hit rate 0.8% among 300,000;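 active = all replicates at 75% or more, or half of them and the mean; inconclusive = half reach 75% but not the mean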;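 note: 0% = cytokine-treated negative control wells and 100% = positive control rescue; higher means more ATP so stronger rescue from cytokine killing; wells of about 40 µL received 100 nL stock; the first replicate is given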
Calb FLC = C. albicans growth inhibition with fluconazole, primary screen, CaCi-2 strain, Alamar Blue fluorescence; C. albicans CaCi-2 (fluconazole-resistant clinical isolate) + fluconazole, 48 h; growth inhibition, % (concentration not given with the values); hit rate 0.57% among 300,000; AID 1979, 2009;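 active = most replicates above 75%; inconclusive = exactly half above 75%; inactive = most below 75%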;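 note: all wells also contain fluconazole at 8 µg/ml as a sub-toxic cotreatment; 0% = median of DMSO wells and 100% = median of geldanamycin control wells; wells of about 8 µL received 7.5 nL stock; the first replicate is given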
rRNA inh HTS = reduced GFP signal of wild-type E. coli, primary screen, bacterial rRNA inhibitor project, GFP/RFP fluorescence, OD600, single point | E. coli WT GFP vs humanized-ribosome RFP mutants, 24 h; stronger effect = lower value; DMSO median 0, no signal -100 | GFP signal change (wild-type ribosome), % (concentration not given with the values) | hit rate 1.6% among 350,000 | AID 720706, 2013;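 active = significant combined selectivity score with lowered wild-type GFP, culture density cut under 30%, mutant RFP and density less affected; inactive = any of these conditions unmet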; note: one replicate is shown; some compounds called inactive have numbers as strong as hits
rRNA inh HTS OD600 = also measured in rRNA inh HTS; calls as there; OD600 change, %; measured here: OD600 growth;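 optical density of the mix in the first replicate; 0 = DMSO median and -100 = no signal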
rRNA inh HTS RFP = second read-out of rRNA inh HTS, no call of its own (marks repeat the call); RFP signal change, %; measured here: RFP humanized mutant strains;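 first replicate; 0 = DMSO median and -100 = no signal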
* hit, by the source's call; ? = inconclusive; · = no result given; & = joins results of further samples.

SMILES	Vif TR-FRET	RanGTP-Imp inh	MLL AF4-AF9 inh	A1 inh	T cruzi repl	Beta apoptosis	Calb FLC	rRNA inh HTS	rRNA inh HTS OD600	rRNA inh HTS RFP
O=C(Nc1ccc(N2CCOCC2)nc1)c1c(F)cccc1F	·	1.6	-3.3	-0.5	8.6	-2.3	1.4	3.0	8.9	-1.3
O=c1c2sccc2nc(SCc2cc(=O)n3cc(Br)ccc3n2)n1Cc1ccccn1	8.4%	?	1.9	-0.9	2.3	2.7	-19.9	6.8	7.4	-1.8
O=C1NC(Cc2c[nH]c3ccccc23)C(=O)N1c1ccc(F)cc1 (stereo unspecified)	1.0%	-3.2	·	1.0	-2.2	0.4	4.9	·	·	·
O=C(NNC(=S)NC(=O)c1ccco1)c1ccc(F)cc1	22.8%	-0.1	2.5	0.0	-13.8	16.8	-6.8	·	·	·
CSc1ccccc1NC(=O)Cn1nc([N+](=O)[O-])cc1C	-3.0%	-0.9	-0.7	1.2	-1.2	0.4	2.1	5.7	2.1	-0.9
COc1cccc(Nc2ncnc3nc[nH]c23)c1	-3.8%	10.1	2.7	-5.0	-18.9	-10.4	1.5	7.2	8.6	0.2
Nc1c(Nc2ccccc2)c2ccccc2oc1=O	28.7%	-1.7	·	-0.9	-33.6	-3.0	-8.9	·	·	·
COc1cc(SC)ccc1C(=O)N(Cc1ccccc1)c1ccccc1	·	0.2	2.9	1.0	30.4	-1.4	4.7	-41.2	-59.4	-7.8
Cc1cc(NC(=O)COC(=O)C(Nc2ccc(C(F)(F)F)cc2Cl)C(C)C)no1 (stereo unspecified)	9.8%	2.1	·	-0.1	6.8	-5.1	-0.9	·	·	·
CCc1ccc(NS(=O)(=O)c2cccc3nsnc23)cc1	·	-1.4	10.3	0.8	34.6	-3.1	-11.9	-3.7	-15.7	3.3
CCSc1ncc(Cl)c(C(=O)Nc2ccccc2)n1	16.7%	-0.8	·	0.6	2.0	2.4	0.1	·	·	·
COC(=O)c1cncc(O)c1	0.4%	-2.2	·	-1.4	-6.9	0.0	-3.7	12.8	11.9	1.0
Cn1c(=O)c(C(=O)CN2CCN(Cc3ccc4c(c3)OCO4)CC2)c(N)n(Cc2ccccc2)c1=O	0.2%	1.4	4.5	0.8	16.2	10.5	-12.5	7.7	1.2	-1.0
Cc1cccc(NC(=S)N(C)Cc2cn(C)c3ccccc23)c1	8.4%	0.2	8.7	0.4	-15.3	-0.7	3.0	-6.0	-8.9	0.3
COc1cccc(CNC(=O)C2CC(=O)N(C3CCCCCCC3)C2)c1 (stereo unspecified)	5.2%	-0.8	-0.8	0.5	5.9	-4.2	11.5	-1.5	-3.5	1.8
OCCN1CCN(CC(O)COc2ccc3c(c2)OCO3)CC1 (stereo unspecified)	22.6%	6.3	·	-0.4	1.7	-18.0	-4.3	·	·	·
COc1ccc(CCNc2ncnc3sccc23)cc1OC	-1.3%	13.3	-5.3	0.1	-57.7	110.9*	2.0	-19.0	-22.8	2.0
Cc1ccsc1C(=O)OCC(=O)N(C)c1c(N)n(Cc2ccccc2)c(=O)[nH]c1=O	·	0.2	-1.3	0.0	-0.4	-0.7	·	4.7	7.6	0.8
Cc1ccc(S(=O)(=O)NCCS(=O)(=O)N2CCN(c3ccc(F)cc3)CC2)cc1	-0.2%	-3.1	3.0	0.8	1.1	3.8	-10.7	0.7	-0.8	0.4
c1ccc(Oc2cc(-c3ccccc3)ncn2)cc1	?	5.2	·	-1.4	-4.4	3.4	-2.5	·	·	·

Compounds above containing a Cl atom (two):
SMILES	Vif TR-FRET	RanGTP-Imp inh	MLL AF4-AF9 inh	A1 inh	T cruzi repl	Beta apoptosis	Calb FLC	rRNA inh HTS	rRNA inh HTS OD600	rRNA inh HTS RFP
Cc1cc(NC(=O)COC(=O)C(Nc2ccc(C(F)(F)F)cc2Cl)C(C)C)no1 (stereo unspecified)	9.8%	2.1	·	-0.1	6.8	-5.1	-0.9	·	·	·
CCSc1ncc(Cl)c(C(=O)Nc2ccccc2)n1	16.7%	-0.8	·	0.6	2.0	2.4	0.1	·	·	·

Following part:
SMILES	Vif TR-FRET	RanGTP-Imp inh	MLL AF4-AF9 inh	A1 inh	T cruzi repl	Beta apoptosis	Calb FLC	rRNA inh HTS	rRNA inh HTS OD600	rRNA inh HTS RFP
Cc1cc(C)cc(N2C(=O)C3CCCN3C2=S)c1 (stereo unspecified)	-0.2%	-1.6	-2.9	-0.3	-11.0	-1.0	-6.6	-7.7	7.2	-6.2
COCCNC(=O)/C(C#N)=C/C(C)=C/c1ccccc1	-5.0%	-0.3	-0.4	0.1	-12.4	4.8	6.9	-21.9*	-3.2*	5.4*
N#CCSc1nnc(-c2ccccc2)c(-c2ccccc2)n1	2.0%	-3.9	·	-0.4	18.0	8.6	5.4	·	·	·
COCCSc1nc2c(c(=O)[nH]c(=O)n2C)n1CCCc1ccccc1	-8.6%	4.9	-2.0	0.2	8.1	6.0	-0.8	17.5	-6.2	-2.9
COc1ccc(CCNC(=O)CSc2nnnn2-c2ccccc2OC)cc1OC	7.9%	0.6	-3.1	0.1	-7.9	-2.0	-1.2	-1.7	-6.6	-0.3
COC(=O)c1[nH]c(C)c(/C(O)=C2\C(=O)C(=O)N(CCCN3CCOCC3)C2c2ccccn2)c1C (stereo unspecified)	5.3%	-3.8	·	-0.8	-10.5	5.5	-20.2	·	·	·
Cc1ccc(C2NC(c3ccc(C)cc3)C(C)C(=O)C2C)cc1 (stereo unspecified)	?	-3.5	·	0.5	1.1	8.0	-5.1	-27.4*	-8.9*	-6.5*
CCNc1nc(NC(C)C)nc(N(C#N)CCOc2ccccc2)n1	-2.5%	-1.2	·	0.2	23.2	18.9	-6.5	·	·	·
Cc1ccc(C)c(S(=O)(=O)N2CCN(C(=O)CCc3nc4ccccc4c(=O)[nH]3)CC2)c1	4.6%	2.7	1.1	-0.6	12.5	-1.3	2.4	-0.1	-0.2	-0.9
O=C(NCCc1ccccc1)C(=O)NCC1CCNCC1	?	5.2	·	-3.7	-1.5	-0.2	43.9	·	·	·
O=S(=O)(NCc1ccccn1)c1ccc2ccccc2c1	·	-2.3	0.7	0.5	0.9	-1.2	-17.2	-2.6	-3.6	-0.7
Cc1cc(NC(=O)COc2ccccc2)ccc1Cl	·	-0.9	-15.5	-0.7	-5.0	-7.5	-23.5	2.9	-3.3	-0.3
O=C(c1cccs1)N(Cc1ccc(Cl)cc1)C1CCS(=O)(=O)C1 (stereo unspecified)	·	?	-0.6	-1.5	-0.1	-1.8	1.0	4.9	8.4	-3.5
CCOC(=O)Cn1nc(C)c(NC(=O)COc2cccc(Cl)c2)c1C	-4.3%	·	-1.4	0.4	·	-1.6	-14.5	1.5	4.7	-1.8
COc1cccc(C(=O)NNC(=O)c2ccccc2Br)c1	6.8%	·	·	0.8	15.8	-5.7	110.3*	·	·	·
Cc1ccc(CC(=O)N2CCN(c3ccccn3)CC2)cc1	-4.9%	2.0	·	1.3	0.2	·	0.7	·	·	·
CN(Cc1ccccc1)C(=O)C1CCN(S(=O)(=O)c2cc([N+](=O)[O-])ccc2Cl)CC1	·	4.3	3.8	0.3	17.8	5.2	?	11.9	8.3	-0.1
Cc1cccc(CN2CCN(Cc3cnn(-c4ccccc4F)c3)CC2CCO)n1 (stereo unspecified)	12.4%	-2.8	3.8	-1.0	8.3	3.6	-14.0	7.7	7.1	-3.4
COc1ccc(S(=O)(=O)N2CCOC2CNC(=O)C(=O)NCc2ccccc2OC)cc1 (stereo unspecified)	-8.1%	4.9	-1.1	-1.0	0.1	1.5	-5.0	·	·	·
O=C(CN1CCC(C(=O)c2cccc(Cl)c2)CC1)Nc1cccc(C(=O)O)c1	12.0%	0.6	-0.7	0.7	-1.7	-6.0	2.4	0.4	-1.2	-2.4
O=C(CSc1n[nH]c(=O)n1-c1cccnc1)N1CCOCC1	·	-0.5	3.1	0.9	-27.5	·	-6.5	1.1	-11.5	-0.7
CC(C)=CCc1c2c(c3occ(-c4ccc(O)cc4)c(=O)c3c1O)C=CC(C)(C)O2	23.2%	-2.2	14.5	0.1	41.1	14.4	-0.6	·	·	·
COc1ccc(N2CCC(CNC(=S)Nc3c(C)cccc3C)C2)cc1 (stereo unspecified)	3.1%	-0.3	18.6	0.3	55.3*	1.1	-2.4	-9.3	0.5	14.0
CN(CC(=O)NCc1ccccc1)Cc1cccc(F)c1	0.4%	-2.3	2.6	-0.1	-4.6	2.0	8.7	13.6	6.3	2.6
COc1cccc(NC(=O)N(CCCN2CCOCC2)C(C)c2cc3cccc(OC)c3o2)c1 (stereo unspecified)	?	3.7	·	0.0	1.2	-3.3	-0.6	·	·	·
Cc1noc(C)c1COc1ccc(C(=O)OCc2nnc(-c3ccc(Cl)cc3)o2)cc1	-1.1%	2.2	·	-0.2	1.3	-6.0	-7.9	·	·	·
CC1CCCCN1C(=O)CN1C(=O)c2ccccc2S1(=O)=O (stereo unspecified)	10.2%	3.8	-1.9	-0.4	-8.9	·	-9.8	5.0	1.0	-1.1
CN(Cc1cccc(F)c1)CC(O)COCc1ccccc1Cl (stereo unspecified)	-9.6%	-1.0	-5.3	0.4	5.7	-3.0	-23.1	-1.7	-5.5	-5.6
CCOc1ccc(CC(=O)Nc2ccc(-c3ccc4nnc(C)n4n3)cc2)cc1	-3.2%	0.9	-9.3	0.3	7.9	-1.8	-6.5	4.8	7.6	0.2
CCOC(=O)c1cccc(NC(=O)CS(=O)(=O)Cc2nc(-c3cccc(OC)c3)oc2C)c1	-4.2%&-1.1%	?	·	-0.3	11.8	2.7	0.2	-12.6	-11.1	-7.3
CCC(C)NC(=O)CSc1nnc(-c2ccncc2)n1-c1ccc(OC)cc1 (stereo unspecified)	-2.2%	-1.5	·	0.2	10.9	-4.2	-5.9	·	·	·
COc1ccc(C(=O)C(/C=N/O)=N/Nc2ccc(F)cc2)cc1	-5.3%	-6.7	0.0	0.2	-20.8	27.6	43.2	-25.9*	-20.9*	-3.2*
CCCCOc1ccc(C(=O)NCC(=O)OCC(=O)c2c(N)n(C)c(=O)n(C)c2=O)cc1	-2.8%	·	-2.6	-1.0	·	-1.4	·	-1.6	-0.3	4.1
COCCC(=O)N1CCC(Oc2ccc(C(=O)N3CCCC(CCCO)C3)cc2)CC1 (stereo unspecified)	·	-4.4	-0.6	0.7	-7.7	2.5	-6.8	2.4	12.3	0.2
O=C(Cc1ccc(-n2cccc2)cc1)N1CCc2ccccc21	4.6%	-1.3	·	-0.2	·	-0.1	-4.8	·	·	·

Not all compounds are listed. The share of hits here may be higher or lower than overall.
